NPYLR7 agonist: agonists of mosquito NPYLR7 receptor, primary screen, cell-based, Aedes aegypti, calcium fluorescence, mosquito biting behavior; HEK293T NPYLR7/Galpha15, GCaMP6s calcium fluorescence; activation, % at 10 µM; Aedes aegypti neuropeptide Y-like receptor 7 (NPYLR7); 0.15% of 270,000 active; AID 1259423, 2018; in the data active = activation above about 40%;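 note: 0% = vehicle and 100% = reference agonist at the receptor; some compounds past the cut are filed as inactive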
NPYLR7 agonist max-min: second read-out of NPYLR7 agonist, no call of its own (marks repeat the call); activation, %; measured here: Max-Min RFU normalised activation; some inactives read as strong as hits;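 span of the calcium signal over five minutes; 0% = vehicle and 100% = native peptide agonist; compound fluorescence can raise it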
The depositor's hits bear a star; i = inactive; & = joins results of further samples. Some of the compounds tested, so the mix of outcomes need not match the whole.

SMILES	NPYLR7 agonist	NPYLR7 agonist max-min
CC1CN(c2nc(Nc3ccc(Cl)cc3)c3nccnc3n2)CC(C)O1 (centres undefined)	0	12
CC(C)(C)c1cc2nc(-c3ccccc3Cl)cc(C(=O)NCCc3ccccn3)n2n1	3	5
O=C(NN=Cc1cccc(F)c1)C1COc2ccccc2O1 (centres undefined)	-18	-16
Cc1ccc(C2(O)CCN(C(=O)Cc3c[nH]c4ccccc34)CC2)nc1	2	1
Cc1occc1C(=O)N1CCC(C2(Cc3ccc(F)cc3)NC(=O)N(CC3CC3)C2=O)CC1 (centres undefined)	18	7
C=CCN1C(=O)NC(=O)/C(=C/c2cccc(OCC(=O)O)c2)C1=O	3	1
Cc1ccsc1C(=O)Nc1ccc(N(C)C(=O)c2sccc2C)c(F)c1	1	i
COc1ccc(NC(=O)CSc2nc3c(cnn3CCO)c(=O)[nH]2)cc1	5	7
Cc1ccc(S(=O)(=O)N2CCCC(C(N)=O)C2)cc1 (centres undefined)	-1	-3
O=c1c2nnn(-c3ccccc3)c2ncn1Cc1ccc(C(F)(F)F)cc1	1	1
COc1ccccc1CN(Cc1cccc(C(F)(F)F)c1)Cc1nc(C(=O)NCc2ccc(F)cc2)co1	19	18
CCOc1cc(S(=O)(=O)Nc2cc(Cl)ccc2OC)ccc1Cl	3	-4
CNc1cccc(-c2ccccc2OC)n1	-2	-3
N#CC(=Cc1ccncc1)c1nc2cc(C(F)(F)F)ccc2s1	18	11
CC(Oc1cccc(-c2ccnc3[nH]ccc23)c1)C(N)=O (centres undefined)	-3	-6
COc1ccc(Br)c(Cn2c(C)c(C(=O)NCc3ccc(F)cc3)sc2=O)c1	10	4
CCOC(=O)N[C@H]1C[C@@H](C(=O)NCc2cccc(Cl)c2)N(C)C1	-3	-4
O=CN1CCN(CN2C(=O)C(=O)c3cc([N+](=O)[O-])ccc32)CC1	-10	-13
Cc1cc(Nc2ccc(C(N)=O)cc2)c2ccc(C(F)(F)F)cc2n1	3	3
CC(c1ccc(S(C)(=O)=O)cc1)N(C)Cc1noc(C(C)(C)C)n1 (centres undefined)	7	4
OCc1cc(C(O)CNCCCCCCOCCCCc2ccccc2)ccc1O (centres undefined)	8&17&0	3&10&-21
Cn1c([N+](=O)[O-])cnc1COC(N)=O	-7&-11&-4	-7&0&-12
COc1ccc(-c2nn(-c3ccccc3)cc2CN(C)Cc2cnc3ccccn23)c(F)c1	8	-5
CCCOc1nn(CCC)cc1C(=O)N1CCC(C(=O)OC)CC1	-2	-11
CCCS(=O)(=O)N1CCN(c2nc(C)nc(CC)c2Cc2c(F)cccc2Cl)CC1	2	13
CC(C)C(NCC(O)Cc1ccccc1)c1nc(-c2ccc(Br)cc2)no1 (centres undefined)	12	16
CN(CCc1ccccn1)C(=O)CCC1CCCN(C(=O)c2ccc3c(c2)OCO3)C1 (centres undefined)	3	0
CC1CN(c2nc(Cc3ccc(F)cc3)ns2)CCN1C(=O)c1cccc2ccccc12 (centres undefined)	13	14
O=C(c1cccs1)N(Cc1ccc(F)cc1F)CC1CC(c2cccc(F)c2)=NO1 (centres undefined)	25	20
COc1ccccc1-c1cc(C(=O)O)nc2cc(-c3ccc(Cl)cc3)nn12	-6	1
O=C(N/N=C\c1ccccc1Cl)c1ccc(=O)[nH]n1	0	2
Cc1c(C(=O)OCc2cccc(C(F)(F)F)c2)nnn1-c1ccc(F)cc1	2	-10
COc1cccc(C(=O)N2CCC3(CC2)C(=O)N(CC(=O)NCC2CCCO2)CN3c2ccccc2)c1 (centres undefined)	-2	-2
CCS(=O)(=O)Oc1ccccc1CN(C(=O)c1ccco1)C(C)C	10	7
COc1ccccc1C(=O)NN=Cc1c(O)ccc2oc3c(c12)CCCC3	-6	-12
N#Cc1cccc(N2C(=O)CC3CS(=O)(=O)CC32)c1 (centres undefined)	0	20
O=S(=O)(c1ccc(Br)cc1)N1CCC2(CC1)OCCO2	0	-2
CCCn1c(=O)c2c(nc3n(CC(=O)OCC)c(C)cn23)n(C)c1=O	3	3
O=C1c2nc(-c3cccnc3)ccc2CN1C1(C(=O)NC2CC2)CC1	-13	-14
O=C1CCCN1C1CCN(CCc2nc3ccc(F)cc3[nH]2)CC1	2	-2

A draw from above in order of SMILES length, high to low:
SMILES	NPYLR7 agonist	NPYLR7 agonist max-min
CCCS(=O)(=O)N1CCN(c2nc(C)nc(CC)c2Cc2c(F)cccc2Cl)CC1	2	13
O=C(c1cccs1)N(Cc1ccc(F)cc1F)CC1CC(c2cccc(F)c2)=NO1 (centres undefined)	25	20
Cc1c(C(=O)OCc2cccc(C(F)(F)F)c2)nnn1-c1ccc(F)cc1	2	-10
OCc1cc(C(O)CNCCCCCCOCCCCc2ccccc2)ccc1O (centres undefined)	8&17&0	3&10&-21

Additional entries
SMILES	NPYLR7 agonist	NPYLR7 agonist max-min
CCn1nc(C)c(NC(=O)CN(C)C(C)c2ccon2)c1C (centres undefined)	3	0
O=C(c1cnnn1-c1ccccc1Cl)N1CCC(N2CC=CC2)C1 (centres undefined)	-11	-10
COC(=O)Cn1c(=O)c2c(nc3n(-c4ccc(OC)cc4)c(C)c(C)n23)n(C)c1=O	21	10
CC(C)(C)c1ccc(/C=C/C(=O)Nc2ccc3c(c2)OCCO3)cc1	1	-17
CCN1CCN(C(=O)CC2CSc3nc4c(c(=O)n32)CCCC4)CC1 (centres undefined)	-3	-3
Cc1cc(C)cc(NC(=O)CSc2nccn(-c3ccc(F)c(Cl)c3)c2=O)c1	5	6
Cc1ccc(Sc2ccc(CN3CCCC4(CC3)CN(C)C(=O)O4)o2)cc1 (centres undefined)	21	16
COC(=O)C(=O)N1CCc2ccccc2C1c1ccccc1Cl (centres undefined)	17	11
Cc1cc(Cl)cc(C)c1OC(C)C(=O)NNS(=O)(=O)c1cccs1 (centres undefined)	1	-1
CCOC(=O)c1c(NC(=O)c2ccc(C)cc2)sc(C(=O)N2CCCCC2)c1C	-11	-20
Cc1cccc(OCC(=O)Nc2sc3c(c2C#N)CCCC3)c1C	3	-1
CN(CCCC1CCCO1)C1CCC2(CCNCC2)CC1 (centres undefined)	14	9
C=CCN(CC=C)C(=O)Cn1cnc([N+](=O)[O-])n1	-8	-9
CC(C)c1cc(C2CCN(C(=O)c3ncc(F)cc3F)CC2)[nH]n1	0	-3
NC(=O)C(OC(=O)CCc1ccc2c(c1)OCO2)c1ccccc1 (centres undefined)	4	0
O=C(Cn1cnc2scc(-c3cccs3)c2c1=O)Nc1cc(F)cc(F)c1	-5	-9
O=C(Nc1n[nH]c(C2CCCCC2)n1)N1CCc2c([nH]c3ccccc23)C1	2	-10
COCCC1CCN(C(=O)c2ccc(NCc3sccc3C)cc2)CC1	22	11
O=C(CCC1CCCCC1)N1CCN(C(=O)CCC2CCCCC2)CC1	-6	-12
COc1ccc(-c2nnc(C(C)Nc3cccc4c3CCCC4)o2)cc1 (centres undefined)	6	1
CC1=CC(C)(C)N2C(=O)C(=O)c3cc(OC(=O)C4CCCO4)cc1c32 (centres undefined)	0	-3
Cc1ccc(-n2nnnc2CNC(=O)C2c3ccccc3Oc3ccccc32)cc1C	1	1
OC(c1ccccc1)C1CCN(CCc2ccccc2)CC1 (centres undefined)	-10	-16
CCCS(=O)(=O)NCCc1ncc(C)s1	3	0
CC(Oc1ccccc1/C=C/c1ccccc1)C(N)=O (centres undefined)	-1	7
COc1ccccc1-n1cc(CN2CCN(C3CCCCC3)C(CCO)C2)cn1 (centres undefined)	-4	-6
O=C1CCCCC1Sc1nc2cc(Cl)ccc2s1 (centres undefined)	3	8
O=C(COc1ccccc1)NCCN1C(=O)SC(=Cc2ccc(OC(F)F)cc2)C1=O	-1	-6
CCS(=O)(=O)N1CCC(=O)N(C)c2ccccc2C(OC)C1 (centres undefined)	2	7
CCc1ccccc1Nc1nnc(SCCN2CCOCC2)s1	1	2
COCCCn1cc(C(=O)N2CCN(C(=O)C3CCCC3)CC2)c2nn(-c3ccccc3)c(=O)c-2c1	1	0
Cc1c(C)n2c3c(=O)n(CCN4CCCCC4)c(=O)n(C)c3nc2n1Cc1ccccc1	2	3
O[C@@H]1C[C@@H]2CO[C@@H](c3ccccc3)C[C@@]2(O)[C@H]1N1CCC(N2CCCCC2)CC1	8	15
CCOC(=O)c1cnc(N2CC(C)CC(C)C2)[nH]c1=O (centres undefined)	-1	-2
CNCC(=O)N1CCCCC1CCc1cccs1 (centres undefined)	1	-8
COc1cc(C)c(-c2c(-c3ccccc3)ncn2Cc2ncc[nH]2)cc1C	-2	-4
CCN(C)C(=O)c1cc(-c2ccc(C)o2)[nH]n1	5	6
COc1ccc(CN(C)C(=O)c2ccccc2C2CCNC2)c2cccnc12 (centres undefined)	3	5
O=C(c1cccs1)N(CCCn1ccnc1)c1nc2c(F)cccc2s1	-12	-21
O=C(CSc1nc2c(-c3ccccc3)c[nH]c2c(=O)n1C1CC1)NCC1CCCO1 (centres undefined)	0	-5

2 of the compounds above, as labelled records.
compound: O=C(COc1ccccc1)NCCN1C(=O)SC(=Cc2ccc(OC(F)F)cc2)C1=O
  NPYLR7 agonist: -1 | NPYLR7 agonist max-min: -6

compound: Cc1ccc(-n2nnnc2CNC(=O)C2c3ccccc3Oc3ccccc32)cc1C
  NPYLR7 agonist: 1 | NPYLR7 agonist max-min: 1

Further results:
SMILES	NPYLR7 agonist	NPYLR7 agonist max-min
N#CCCn1c(-c2cncs2)nc2ccccc21	7	6
CCc1nnc(NC(=O)COc2ccc3ccccc3c2)s1	5	13
CC(=O)Nc1ccc(-c2nnc3ccc(-c4ccc(N5CCN(C)CC5)cc4)cn23)cc1	4	-6
N[C@H](Cc1ccccc1)C(=O)N1CCCN(Cc2cccs2)CC1	25	17
COc1ccc(-c2cc(C(=O)N3CCN(C(c4ccccc4)c4ccccc4)CC3)n(-c3ccc(Cl)c(Cl)c3)n2)cc1	1	15
CCOC(=O)CCC(=O)N(CCCOC)CC(=O)N1CCc2sccc2C1c1ccc(F)cc1 (centres undefined)	13	20
Cc1noc(C(NC(=O)C(C)c2c(C)noc2C)C(C)C)n1 (centres undefined)	1	22
COc1ccc(NC(=O)c2ccc(-c3ccc(-c4noc(C)n4)cc3C)cc2)cc1N1CCN(C)CC1	-1	-28
COc1ccccc1CC(=O)Nc1sc2c(c1C(N)=O)CCCCC2	-7	-12
CCSc1nnc(NC(=O)c2ccncc2)s1	6	4
O=c1[nH]nc(CSCc2csc(C3CCCCC3)n2)[nH]1	29	28
O=C(Cc1ccon1)NCC1(Cc2ccccc2)CCC1	5	2
CCNC(=O)C1(C)CCCN(Cc2ccc(-c3ccccn3)cc2)C1 (centres undefined)	1	-2
COc1ccccc1NC(=O)Nc1ccnn1C1CCN(C(=O)c2ccsc2)CC1	5	0
CC1(C(=O)NCc2ccc3c(c2)OCO3)CCN1CCc1ccccc1 (centres undefined)	1	-3
O=C(NCc1ccc(F)cc1)C1CCN(c2ncnc3c2sc2ncccc23)CC1	-1	-6
CCOC(=O)c1coc(N2C[C@H]3C[C@H](O)[C@H](O)C[C@H]3C2)n1	3	-2
Cc1nn(C2CCS(=O)(=O)C2)c2nc(-c3cccs3)cc(C(=O)N3CCCC3)c12 (centres undefined)	0	3
COc1ccc(-n2cccn2)c(C2CC(=O)Nc3[nH]ncc32)c1 (centres undefined)	0	8
CCSCCOC(=O)C1=C(C)N(C)C(=O)NC1c1ccc2c(c1)OCO2 (centres undefined)	-4	-8

Part of the list above, with bars between the fields:
SMILES | NPYLR7 agonist | NPYLR7 agonist max-min
N[C@H](Cc1ccccc1)C(=O)N1CCCN(Cc2cccs2)CC1 | 25 | 17
Cc1ccc(C2(O)CCN(C(=O)Cc3c[nH]c4ccccc34)CC2)nc1 | 2 | 1
CN(CCc1ccccn1)C(=O)CCC1CCCN(C(=O)c2ccc3c(c2)OCO3)C1 (centres undefined) | 3 | 0
CC(=O)Nc1ccc(-c2nnc3ccc(-c4ccc(N5CCN(C)CC5)cc4)cn23)cc1 | 4 | -6
CNc1cccc(-c2ccccc2OC)n1 | -2 | -3
O=S(=O)(c1ccc(Br)cc1)N1CCC2(CC1)OCCO2 | 0 | -2

Back to the main list; the four compounds before the break are reprinted first.
SMILES	NPYLR7 agonist	NPYLR7 agonist max-min
CCOC(=O)c1coc(N2C[C@H]3C[C@H](O)[C@H](O)C[C@H]3C2)n1	3	-2
Cc1nn(C2CCS(=O)(=O)C2)c2nc(-c3cccs3)cc(C(=O)N3CCCC3)c12 (centres undefined)	0	3
COc1ccc(-n2cccn2)c(C2CC(=O)Nc3[nH]ncc32)c1 (centres undefined)	0	8
CCSCCOC(=O)C1=C(C)N(C)C(=O)NC1c1ccc2c(c1)OCO2 (centres undefined)	-4	-8
COc1ccccc1OCCN1CCC(C(=O)NC(c2ccc(F)cc2)c2ccccn2)CC1 (centres undefined)	10	0
O=C(c1ccc2c(c1)OCO2)N(CC(=O)N1CCc2sccc2C1COc1cccc(F)c1)C1CC1 (centres undefined)	-1	3
COCCn1c(=NC(=O)c2cc(C)nn2C)sc2cc(F)ccc21	-5	-4
CC1(C(=O)NCCc2ccccc2)CCN1Cc1ccccc1Cl (centres undefined)	5	-2
COc1ccc(C2CC2C(=O)N2CCN(C)CC2C)cc1 (centres undefined)	3	2
CCc1nc2ccc(C(=O)Nc3ccc(Cl)c(Cl)c3)cn2c1N(CC)Cc1ccc(OC)c(OC)c1	9	12
CCC(C)NCC(O)COC12CC3CC(CC(C3)C1)C2 (centres undefined)	1	-1
CCCN(Cc1ccccc1OC)Cc1c(C)nn(C)c1Cl	6	-3
